Six1-Eya2 blk: qHTS Assay for Inhibitors of the Six1/Eya2 Interaction; Homeobox protein SIX1 (Homo sapiens) + Protein phosphatase EYA2 (Homo sapiens), …; AID 651725, 2012; hit rate 0.56% among 360,000; activity change, % (concentration not given with the values); AlphaScreen GST-Six1/His-Eya2 binding, biochemical; stronger effect = lower value; control for the full effect not named in the record; in the data active = activity change below about -65%; inconclusive = about -30% to -65%; inactive = above about -30%; note: % is set by controls: 0 for no effect and ±100 for the full control effect
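AlphaScreen with GST-Six1 and His-Eya2 (5X mix: 250 nM and 500 nM), glutathione donor and nickel acceptor beads; buffer 50 mM Tris pH 8.0, 300 mM NaCl, 1 mM TCEP; 1 h at 37 C in the dark.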
D2 potentiator: Beta-Arrestin HTS for Positive Allosteric Modulators of the Human D2 Dopamine Receptor: Potentiators. D(2) dopamine receptor (Homo sapiens), P14416. DiscoveRx D2 beta-arrestin cells, luminescence, 90 min; 100% = 57 uM dopamine signal. potentiation, % (no concentration beside the values). hit rate 0.23% among 360,000; active = potentiation of 50% or more; inconclusive = 30% to 50%; inactive = 30% or less;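 note: compound concentration not given in the record; tested on top of an EC20 dose of dopamine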
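PathHunter beta-arrestin assay in DiscoveRx D2 cells. Compounds were added with an EC20 of dopamine (50 nM final) for 90 min at 37 deg C. Luminescence was read 1 h after detection reagent, with 57 uM dopamine as the EC100 control.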
CtBP-E1A blk: qHTS Assay for Inhibitors of the CtBP/E1A Interaction | CtBP / adenovirus E1A interaction (AlphaScreen) | AlphaScreen GST-E1A/His-CtBP binding, 1536-well; stronger effect = lower value; control for the full effect not named in the record | activity change, % (concentration not given with the values) | hit rate 0.49% among 340,000; in the data active means activity change below about -65%; inconclusive means about -30% to -65%; inactive means above about -30%; note: % is set by controls: 0 for no effect and ±100 for the full control effect
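GST-E1A and His-tagged CtBP (125 nM each as 5X stock) were preincubated with pin-transferred compound for 2 h at 37 °C in the dark, then glutathione donor and nickel acceptor beads were added for 1 h before AlphaScreen reading.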
TRPV1 potentiator: HTS Assay for Compounds that Act as Potentiators of the Vanilloid Receptor 1; Transient receptor potential cation channel subfamily V member 1 (Homo sapiens), Q8NER1; TRPV1-expressing cells, Fluo-8 calcium influx, capsaicin EC20 potentiation; host cell line not named in the record; control for the full effect not named in the record; potentiation, % at 8.33 µM; hit rate 0.02% among 320,000; active means potentiation above 80%; inconclusive means 30% to 80%; inactive means below 30%; note: 0% is about no effect
Target sequence (Q8NER1 whole entry, looked up): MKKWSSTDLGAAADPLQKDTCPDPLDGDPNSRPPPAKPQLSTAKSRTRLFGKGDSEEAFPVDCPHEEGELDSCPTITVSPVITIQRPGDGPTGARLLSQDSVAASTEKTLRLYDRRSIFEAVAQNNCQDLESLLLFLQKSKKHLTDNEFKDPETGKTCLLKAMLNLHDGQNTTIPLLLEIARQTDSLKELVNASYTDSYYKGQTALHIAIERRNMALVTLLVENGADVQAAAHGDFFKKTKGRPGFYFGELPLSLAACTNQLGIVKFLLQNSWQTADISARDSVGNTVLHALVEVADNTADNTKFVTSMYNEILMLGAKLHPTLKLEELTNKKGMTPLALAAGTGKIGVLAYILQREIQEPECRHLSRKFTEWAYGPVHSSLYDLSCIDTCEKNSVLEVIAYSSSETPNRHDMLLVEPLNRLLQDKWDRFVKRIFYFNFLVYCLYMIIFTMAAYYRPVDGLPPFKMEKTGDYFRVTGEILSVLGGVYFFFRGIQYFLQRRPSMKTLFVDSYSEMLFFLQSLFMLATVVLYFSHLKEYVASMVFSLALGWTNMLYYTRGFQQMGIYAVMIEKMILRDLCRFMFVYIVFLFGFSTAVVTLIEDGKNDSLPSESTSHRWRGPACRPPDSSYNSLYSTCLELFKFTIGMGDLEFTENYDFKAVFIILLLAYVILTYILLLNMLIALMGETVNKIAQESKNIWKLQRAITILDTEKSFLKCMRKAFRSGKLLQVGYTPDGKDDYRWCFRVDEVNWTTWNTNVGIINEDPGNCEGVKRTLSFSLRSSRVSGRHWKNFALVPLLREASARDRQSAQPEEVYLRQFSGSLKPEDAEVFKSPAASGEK
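Cells expressing TRPV1 were dye-loaded with Fluo-8 and read kinetically: 10 s baseline, 3 min after compound (agonist portion), then 2 min after EC20 capsaicin (allosteric enhancer portion). Calcium-bound dye fluorescence at 480/520 nm.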
TRPML1 ag: qHTS for Agonists of the Human Mucolipin Transient Receptor Potential 1 (TRPML1); activation, % (no concentration beside the values); AID 624414, 2012; TRPML1-expressing cells, Ca2+ dye fluorescence, FDSS; host cell line not named in the record; reference of the full effect not given here; Mucolipin-1 (Homo sapiens), Q9GZU1; hit rate 0.12% among 410,000; in the data active = activation above about 50%; inconclusive = about 30% to 50%; inactive = below about 30%; note: 0% is about no effect; the text of the record puts the active cut at 80%
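TRPML1-DL cells, Tet-induced overnight (~16 h, 37 degrees C), loaded 45-90 min at room temperature with Ca8 no-wash calcium dye plus quencher. FDSS fluorescence: 10 s baseline, compound pin-transfer, 110 s agonist read, then EC80 54-4 (4uM final) and 110 s antagonist read.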
TRPML1 blocker: qHTS for Inhibitors of the Human Mucolipin Transient Receptor Potential 1 (TRPML1) | Mucolipin-1 (Homo sapiens), Q9GZU1 | TRPML1-inducible cells, Ca2+ dye fluorescence, FDSS; stronger effect = lower value; inhibition of EC80 agonist-evoked calcium signal | activity change, negative = inhibition, % (concentration not given with the values) | hit rate 0.02% among 390,000; in the data active means activity change below about -50%; inconclusive means about -30% to -50%; inactive means above about -30%;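 note: stimulus is agonist 54-4 at its EC80 concentration; % is set by controls: 0 for no effect and ±100 for the full control effect; compound concentration not given in the record; the text of the record puts the active cut at -80%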
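TRPML1-DL cells, Tet-induced overnight (~16 h, 37 °C) at 1,500 cells/well, were loaded with Ca8 no-wash dye plus quencher for 45-90 min at room temperature. Compounds were pinned during FDSS kinetic reading; agonist 54-4 at EC80 (4 uM final) then added.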
Numbers without * were called inactive; ? = inconclusive; / = no result given; & = joins results of further samples.

nr	canonical_smiles	Six1-Eya2 blk	D2 potentiator	CtBP-E1A blk	TRPV1 potentiator	TRPML1 ag	TRPML1 blocker
1	CSc1nnc(Cn2c(=O)sc3ccccc32)n1C	8	-3	-9	21	0.3	10
2	Cc1cc(C)n2nc(NCc3cccc(Br)c3)nc2n1	0	-15	0	-3	0.4	-5
3	Cc1nn(Cc2ccccc2)c(C)c1CNC(=O)CN=C1NS(=O)(=O)c2ccccc21	0	-21	4	7	2.3	-13
4	COc1ccc(-n2cc(C(=O)c3ccccc3O)cn2)cc1	0	-1	5	-9	-0.5	-23
5	COc1ccccc1N1CCN(C(=O)c2sc3nc(-c4ccccc4)cn3c2C)CC1	-14	5	7	1	1.9	-4
6	O=C(CNC(=O)c1ccc(Br)o1)NCC(=O)OCc1ccccc1	9	-5	-19	8	0.0	-15
7	Cn1ccc(-c2cc(C(=O)O)c3ccccc3n2)n1	1	-5	3	10	0.6	-4
8	COc1cccc(-c2nc3nc(C)cc(C)n3c2Nc2c(C)cccc2C)c1	-4	/	0	/	2.9	/
9	NC(=O)COn1c(SCC(N)=O)nc2ccccc2c1=O	0	-10	14	14	0.8	6
10	CN(C)Cc1c(O)ccc2c(=O)c(-c3ccccc3Cl)c(C(F)(F)F)oc12	9	1	-10	11	0.5	-17
11	Cc1ccccc1CN(C)CCc1ccccn1	2	-5	-3	8	0.3	20
12	CN(Cc1ccccc1)C(=O)CSc1nc2cc(C(=O)N3CCC(C(N)=O)CC3)ccc2c(=O)n1-c1ccccc1	5	-12	/	22	-0.1	-10
13	CC(Sc1nnc(-c2ccc(O)cc2)o1)C(=O)Nc1cccc2ccccc12 (stereo unspecified)	-9	-1	2	2	2.8	10
14	CN(C)c1cccc(Oc2nc3c(c(=O)n(C)c(=O)n3C)n2C)c1	-14	-1	2	-9	-0.2	32
15	CC(C)(C)c1nnc(NC(=O)CCS(=O)(=O)c2ccccc2)s1	3	1	-16	-2	0.6	15
16	CSc1nnc(-c2cc(C)on2)n1-c1ccccc1	-1	-3	-4	4	-0.6	-9
17	CCOc1cccc2cc(-c3cn4cc(C)ccc4n3)c(=O)oc12	8	-4	7	-22	0.6	-19
18	Cc1cc(C(C)(C)C)oc1C(=O)N(CC(=O)NC1CCCC1)Cc1ccc(F)cc1	4	-15	9	-12	4.5	19
19	CCOC(=O)C1CCN(C(=O)c2cc(COc3ccc(F)cc3F)on2)CC1	7	-15	-8	-31	3.5	36
20	CCOC(=O)c1c(-c2ccc(-c3ccccc3)cc2)csc1NC(=O)CNCCN(C)C	-17	-9	-27	-12	-0.4	3
21	CN(C)CCNC(=O)c1c(CSc2ccccc2)noc1C(=O)NCc1ccccc1	-13	-32	-1	13	0.8	-27
22	CCC1CCCCN1C(=O)c1ccc(OC2CCN(C(=O)C3CC3)CC2)cc1 (stereo unspecified)	4	8	-5	8	-1.0	12
23	Cc1cc(/C=C2\SC(N)=NC2=O)c(C)n1-c1ccccc1	-8	-10	-1	-5	-1.8	19
24	CC1CCCN(C(=O)Cn2nnc(-c3ccc(N(C)C)cc3)n2)C1 (stereo unspecified)	0	-12	/	-2	-0.4	38
25	CCN(CC)c1ccc(C=NNc2ccc([N+](=O)[O-])cn2)cc1	-19	1	-23	/	12	20
26	CCC(C(=O)N1CCN(C(=O)c2ccco2)CC1)c1ccccc1 (stereo unspecified)	10	-6	1	-3	2.4	-15
27	CCOC(=O)c1ccoc1CSCc1ccc(C(=O)OC)o1	-3	-9	-2	2	-1.1	-11
28	CC(C)(C)OC(=O)N[C@H](C(=O)OC(C)(C)C)c1ccc(C(F)(F)F)cc1	21	-6	-17	-9	1.3	12
29	CCCCCCCCCc1nc(N)n[nH]1	13	7	-11	-4	-1.3	1
30	CC(C)(C)OC(=O)NC(CNCc1ccccc1)Cc1ccccc1 (stereo unspecified)	5	-104	0	5	0.7	3
31	Cc1nn(-c2ccc(Cl)cc2Cl)c(=O)c2ccccc12	-8	13	-14	14	-0.1	-4
32	S=C(NCCc1ccccc1)N1CCN(Cc2ccc(Cl)c(Cl)c2)CC1	0	-2	3	2	0.6	-4
33	CC(Oc1cc2oc(=O)c3c(c2cc1Cl)CCC3)C(=O)NCCCN1CCOCC1 (stereo unspecified)	-5	-13	9	2	-0.3	-4
34	CCOC(=O)C1CCCN(C(=O)c2cc(-c3ccc(C)cc3)nc3ccccc23)C1 (stereo unspecified)	-6	1	-1	-2	0.2	-6
35	CCOc1cc2[nH]c(=S)n(Cc3ccc(C(=O)NCCCN(CC)CC)cc3)c(=O)c2cc1OCC	-13	-27	?	13	1.4	5
36	O=C(COc1cccc(C(F)(F)F)c1)NCC(c1ccco1)N1CCCCC1 (stereo unspecified)	-5	-7	7	0	-1.1	10
37	Cc1ccc(NC(=O)CN2CCOCC2)cc1S(=O)(=O)N1CCCCC1	5	3	7	/	-0.4	-8
38	O=C(CCN1C(=O)c2ccccc2C1=O)Nc1cc(F)ccc1F	9	-5	-4	-7	-0.6	-14
39	COc1ccc(/C=C2/S/C(=N/N=C3\CC4CCC3(C)C4(C)C)NC2=O)cc1 (stereo unspecified)	2	9	1	-9	1.2	10
40	CC(C)(C)NC(=O)C(c1ccco1)N(C(=O)c1csnn1)c1ccccc1 (stereo unspecified)	2	-7	3	-6	-0.4	-4
41	Cc1ccc(NC(=O)CC2NCCNC2=O)cc1 (stereo unspecified)	0	-1	3	4	-0.6	5
42	CCCC(C(=O)O)N1C(=O)/C(=C2\C(=O)N(C)c3ccccc32)SC1=S (stereo unspecified)	1	61*	4	15	0.0	-10
43	COC(=O)c1nn(-c2ccc(OC)cc2)c(=O)cc1O	2	0	5	8	-0.4	-8
44	COc1ccccc1NC(=O)CSc1nnc(-c2ccccn2)n1Cc1ccco1	-25	1	-25	2	2.1	9
45	Cc1ccccc1N1CCN(C2CCCN(C(=O)c3noc4c3CCCC4)C2)CC1 (stereo unspecified)	-7	-27	2	-20	5.9	1
46	Brc1ccc(Cn2c(-c3cncs3)nc3ccccc32)cc1	-3	-1	-1	?	4.1	7
47	COc1ccc(NC(=O)C(c2ccc(C)cc2)N(C)C(=O)Cc2cccs2)cc1 (stereo unspecified)	-6	-24	0	-12	0.3&-0.2	18&10
48	Cc1nn(-c2ccccc2)c(C)c1/C=C/C(=O)OCC(=O)NC1CCS(=O)(=O)C1 (stereo unspecified)	-3	-1	-75*	-11	1.1	27
49	O=C(O)c1cccc(NC(=O)c2cn(-c3ccccc3)nc2-c2ccc([N+](=O)[O-])cc2)c1	-16	-3	-13	-3	1.8	6
50	COc1ccc(C2NC(=S)NC(C)=C2C(=O)c2ccccc2)cc1OC (stereo unspecified)	-2	-6	-2	0	-0.3	11

Complete entries from above. Screens in order: Six1-Eya2 blk, D2 potentiator, CtBP-E1A blk, TRPV1 potentiator, TRPML1 ag, TRPML1 blocker
CCCC(C(=O)O)N1C(=O)/C(=C2\C(=O)N(C)c3ccccc32)SC1=S (stereo unspecified) is listed with 1, 61*, 4, 15, 0.0, -10
COc1ccc(/C=C2/S/C(=N/N=C3\CC4CCC3(C)C4(C)C)NC2=O)cc1 (stereo unspecified) is listed with 2, 9, 1, -9, 1.2, 10

More structures:
nr	canonical_smiles	Six1-Eya2 blk	D2 potentiator	CtBP-E1A blk	TRPV1 potentiator	TRPML1 ag	TRPML1 blocker
51	CCNC(=O)C1CCCN(C(=O)c2cc(F)cc(F)c2)CC1 (stereo unspecified)	-3	2	1	/	-0.9	/
52	Cc1cc(Cl)ccc1NC(=S)NC1CCCC1	-15	-12	4	-27	-0.6	-2
53	CC1(C(=O)Nc2ccc(F)cc2F)CCN1C(=O)CCC1CCCC1 (stereo unspecified)	0	-2	1	/	-1.3	/
54	CCCCNC(=O)C1(C)CCCCN1C(=O)c1csnn1 (stereo unspecified)	3	-17	5	/	-0.3	37
55	CC(=O)N/C(=C/c1ccc2c(c1)OCO2)C(=O)NCc1ccccc1	5	-4	-1	3	-0.8	-29
56	O=C(CN1C(=O)CSC1=O)Nc1ccc2c(c1)OCCO2	2	-7	-1	2	-0.2	1
57	O=P(O)(CP(=O)(c1ccccc1)c1ccccc1)c1ccccc1O	8	-1	11	25	-0.8	-22
58	C=CCN1C(=O)C(O)(CC(=O)c2c(C)n[nH]c2C)c2cc(Br)ccc21 (stereo unspecified)	8	-1	9	3	0.4	-12

In another format: results already given
40. CC(C)(C)NC(=O)C(c1ccco1)N(C(=O)c1csnn1)c1ccccc1 (stereo unspecified)
41. Cc1ccc(NC(=O)CC2NCCNC2=O)cc1 (stereo unspecified)
42. CCCC(C(=O)O)N1C(=O)/C(=C2\C(=O)N(C)c3ccccc32)SC1=S (stereo unspecified)
43. COC(=O)c1nn(-c2ccc(OC)cc2)c(=O)cc1O
44. COc1ccccc1NC(=O)CSc1nnc(-c2ccccn2)n1Cc1ccco1
45. Cc1ccccc1N1CCN(C2CCCN(C(=O)c3noc4c3CCCC4)C2)CC1 (stereo unspecified)
46. Brc1ccc(Cn2c(-c3cncs3)nc3ccccc32)cc1
47. COc1ccc(NC(=O)C(c2ccc(C)cc2)N(C)C(=O)Cc2cccs2)cc1 (stereo unspecified)
48. Cc1nn(-c2ccccc2)c(C)c1/C=C/C(=O)OCC(=O)NC1CCS(=O)(=O)C1 (stereo unspecified)
49. O=C(O)c1cccc(NC(=O)c2cn(-c3ccccc3)nc2-c2ccc([N+](=O)[O-])cc2)c1
assay / compound,40,41,42,43,44,45,46,47,48,49
Six1-Eya2 blk,2,0,1,2,-25,-7,-3,-6,-3,-16
D2 potentiator,-7,-1,61*,0,1,-27,-1,-24,-1,-3
CtBP-E1A blk,3,3,4,5,-25,2,-1,0,-75*,-13
TRPV1 potentiator,-6,4,15,8,2,-20,?,-12,-11,-3
TRPML1 ag,-0.4,-0.6,0.0,-0.4,2.1,5.9,4.1,0.3&-0.2,1.1,1.8
TRPML1 blocker,-4,5,-10,-8,9,1,7,18&10,27,6

50. COc1ccc(C2NC(=S)NC(C)=C2C(=O)c2ccccc2)cc1OC (stereo unspecified)
51. CCNC(=O)C1CCCN(C(=O)c2cc(F)cc(F)c2)CC1 (stereo unspecified)
52. Cc1cc(Cl)ccc1NC(=S)NC1CCCC1
53. CC1(C(=O)Nc2ccc(F)cc2F)CCN1C(=O)CCC1CCCC1 (stereo unspecified)
54. CCCCNC(=O)C1(C)CCCCN1C(=O)c1csnn1 (stereo unspecified)
55. CC(=O)N/C(=C/c1ccc2c(c1)OCO2)C(=O)NCc1ccccc1
assay / compound,50,51,52,53,54,55
Six1-Eya2 blk,-2,-3,-15,0,3,5
D2 potentiator,-6,2,-12,-2,-17,-4
CtBP-E1A blk,-2,1,4,1,5,-1
TRPV1 potentiator,0,/,-27,/,/,3
TRPML1 ag,-0.3,-0.9,-0.6,-1.3,-0.3,-0.8
TRPML1 blocker,11,/,-2,/,37,-29

Assay outcomes from PubChem BioAssay.
